VDR inhibitor: vitamin D3 receptor (human) inhibition; hit rate 0.93% among 400,000; AID 504847; VDR-SRC2-3 peptide fluorescence polarization, 2 h; P11473; Potency, µM, without a hit: max response, negative = inhibition, most hits filed as inhibitors; active = well fitted inhibition curve with a large enough effect; inconclusive = small, poorly fitted or top-dose-only effect, or another doubt; inactive = no such curve, though single readings can be large or run the other way; note: series mostly up to about 120 µM
Target sequence (P11473 whole entry, looked up): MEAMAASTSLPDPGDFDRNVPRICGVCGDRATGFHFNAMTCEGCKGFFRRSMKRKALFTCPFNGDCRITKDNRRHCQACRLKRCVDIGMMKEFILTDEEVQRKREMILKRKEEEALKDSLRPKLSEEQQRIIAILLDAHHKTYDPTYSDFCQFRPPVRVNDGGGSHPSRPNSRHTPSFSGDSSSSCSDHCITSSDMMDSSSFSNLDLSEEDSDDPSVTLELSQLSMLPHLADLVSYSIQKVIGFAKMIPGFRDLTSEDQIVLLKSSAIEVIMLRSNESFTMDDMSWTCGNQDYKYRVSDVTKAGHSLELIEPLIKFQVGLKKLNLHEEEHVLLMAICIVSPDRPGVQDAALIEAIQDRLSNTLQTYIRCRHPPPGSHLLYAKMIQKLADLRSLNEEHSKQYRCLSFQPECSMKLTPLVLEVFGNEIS
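FP read-out; VDR + SRC2-3 coactivator peptide; 23 nl compound by pintool; 2 h RT incubation; reagents held at 4 deg C, protected from light.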
The depositor's hits bear a star; ? = inconclusive; & = joins results of further samples. % is set by controls: 0 for no effect and ±100 for the full control effect; potency is the fitted concentration of half-maximal effect. The list is partial, so the mix of outcomes need not match the whole.

The opening 6 records, to show the layout:
VDR inhibitor | structure
-6% | Cc1ccc(NC(=O)c2ccoc2C)cc1C
-27% | Cc1[nH]n(C(N)=S)c(=O)c1N=Nc1ccc(Br)cc1
5% | CCCCNc1nc(CC(C)=O)ns1
-15% | O=C(Cn1cc(C(F)(F)F)ccc1=O)N1CCc2ccccc2C1
-14% | COc1ccc(S(=O)(=O)N2CCC(C(=O)N[C@H](C(=O)N3CCCC3)C(C)C)CC2)cc1
-11% | O=C(NCCO)c1ccc2nc(Cc3cccc(Cl)c3)oc2c1

Results, from the first entry:
VDR inhibitor | structure
-6% | Cc1ccc(NC(=O)c2ccoc2C)cc1C
-27% | Cc1[nH]n(C(N)=S)c(=O)c1N=Nc1ccc(Br)cc1
5% | CCCCNc1nc(CC(C)=O)ns1
-15% | O=C(Cn1cc(C(F)(F)F)ccc1=O)N1CCc2ccccc2C1
-14% | COc1ccc(S(=O)(=O)N2CCC(C(=O)N[C@H](C(=O)N3CCCC3)C(C)C)CC2)cc1
-11% | O=C(NCCO)c1ccc2nc(Cc3cccc(Cl)c3)oc2c1
2% | Cc1nc(CCNC(=O)COc2ccccc2)cs1
-14% | Cc1cccc(N2CCN(C(=O)Cc3c(C(=O)O)[nH]c4ccc(Cl)cc34)CC2)c1C
-17% | Clc1ccc(-c2csc3ncnc(N4CCc5ccccc5C4)c23)cc1
-11% | CC(C)n1nccc1N(Cc1ccc(Br)cc1)S(=O)(=O)c1ccccc1
16µM* | COc1cc(N=c2ssnc2Cl)c(OC)cc1Cl
0% | Cn1c(NCCCCO)nc2c1c(=O)n(Cc1ccc(Cl)cc1)c(=O)n2C

Retrieved one by one from the entries so far:
VDR inhibitor | structure
2% | Cc1nc(CCNC(=O)COc2ccccc2)cs1
16µM* | COc1cc(N=c2ssnc2Cl)c(OC)cc1Cl
-15% | O=C(Cn1cc(C(F)(F)F)ccc1=O)N1CCc2ccccc2C1
-6% | Cc1ccc(NC(=O)c2ccoc2C)cc1C

(next part)
VDR inhibitor | structure
-13% | O=C(N/N=C/c1ccc2c(c1)OCO2)c1cc(-c2ccccc2)nc2ccccc12
5% | CN(CC(=O)Nc1ccc(Cl)cc1)C(=O)CCc1c[nH]c2ccccc12
4% | O=C(NCCC(=O)N1CCN(c2ccccc2O)CC1)c1ccc(Br)cc1
5% | COc1ccc(NC(=S)N(Cc2cccnc2)Cc2ccco2)cc1
16% | CCN1CCN(C(=O)c2cc3nc(-c4ccccc4)cc(C(F)(F)F)n3n2)CC1
-16% | O=c1c2ccccc2nnn1CSc1nnc(-c2cccnc2)n1-c1ccccc1F
-15% | CC(C)(C)c1ccc(C2/C(=C(\O)c3ccc4c(c3)OCCO4)C(=O)C(=O)N2CCCN2CCOCC2)cc1 (stereo not drawn)
-4% | Cc1ccc(S(=O)(=O)N2CCCCC2)cc1NC(=O)c1ccc2ccccc2n1
6% | O=C(CCCN1C(=O)/C(=C/c2cccc(Br)c2)SC1=S)Nc1cccnc1
-3% | c1cncc(CSc2ccc(-c3cccs3)nn2)c1
-1% | O=C(c1ccccc1F)N1CCOCC1
-13% | Cn1cccc1C(=O)N1CCC2(CCCN(Cc3ccccc3)C2)CC1
5% | COc1ccc(C(=O)N2CCN(C3CCC(c4ccccc4)CC3)CC2)cc1OC (stereo not drawn)
0% | Cc1ccc(SCc2c(C(=O)N/N=C/c3ccoc3)nnn2-c2nonc2N)cc1
-8% | Cc1ccc(C(N)=S)c(C)c1
7% | CN1CCC(NC(=O)Cc2c(F)cccc2Cl)CC1
-14% | O=c1cc(COn2nnc3ccc(C(F)(F)F)cc32)nc2sccn12
3% | COc1ccc(CNC(=O)CN2CCN(S(=O)(=O)c3cccs3)CC2)cc1OC
0% | CCN1CCN(C2=C(Cl)C(=O)N(Cc3ccccc3)C2=O)CC1
18% | Cc1ccc(S(=O)(=O)N2CCOCC2)cc1NC(=O)COc1cccc(Oc2ccccc2)c1
-6% | O=C1C2CCCN2C(c2ccc(F)cc2)N1c1cccc(Cl)c1 (stereo not drawn)
-9% | Cc1cn(C2OC(CC(=O)Oc3ccccc3)C(O)C2O)c(=O)[nH]c1=O (stereo not drawn)
-23% | CN(C(=O)c1ccccc1C(=O)OCC(=O)Nc1ccccc1)c1ccccc1
-7% | COc1ccc(C(=O)N2N=C(c3ccc(NS(C)(=O)=O)cc3)CC2c2cccs2)cc1 (stereo not drawn)
-4% | c1ccc(Oc2cccc3cccnc23)nc1
-7% | Nc1c(NCc2ccccc2)c(=O)[nH]c(=O)n1Cc1ccccc1
? | CSc1ccc(/C=C(\C#N)C(=O)NC2CCCCC2C)cc1 (stereo not drawn)
-13% | Cc1occc1-c1nnc(SCC(=O)Nc2c(F)cccc2F)n1C
14% | CC(=O)Nc1c(C)nn(-c2ccccc2)c1N1CCC(C(=O)Nc2ccccc2F)CC1
-17%&9% | COCCNC(=O)CSc1nc2cc3c(cc2c(=O)n1CCCC(=O)NCc1ccc(OC)cc1)OCO3
11% | Cc1nc2scc(-c3ccc(Cl)cc3)c2c(=O)n1N
-29% | O=C(Nc1ccccc1)C1CCCN1/C=C/C(=O)C(F)(F)F (stereo not drawn)
-5% | O=C(Oc1c(Br)cc(Br)c2cccnc12)N1CCCCC1
-19% | CCN(CC(=O)Nc1c(F)cccc1F)C(=O)c1ccc(COc2ccccc2)o1
-22% | COc1ccc(C)cc1N(CC(=O)Nc1cccc(N(C)S(C)(=O)=O)c1)S(C)(=O)=O
-4% | CC(=O)NN1C(=O)c2ccccc2NC1c1cccc([N+](=O)[O-])c1 (stereo not drawn)
8% | COc1cc(OC)c(NS(=O)(=O)c2ccc3oc(=O)c4ncn(C)c4c3c2)cc1Cl
-1% | CCOc1cc(/C=N/NS(=O)(=O)c2ccccc2)ccc1OS(=O)(=O)c1ccc(C)cc1
79µM* | CCCc1ccc(C2=Nn3c(nnc3C(C)C)SC2)cc1
-11% | Cc1ccc(OCC(=O)NCCCNC(=O)c2cccnc2)cc1
-17% | CCOc1cc(/C=N/O)ccc1OS(=O)(=O)c1ccc(C)cc1
-13% | CCOc1ccc(CCNC(=O)Cc2ccc(NC(=O)C3=C(C)OCCS3)cc2)cc1
-25% | COc1cc2sc(-c3ccc(S(C)(=O)=O)cc3)c(C(=O)NCc3ccc(C)o3)c2cc1OC
-11% | CS(=O)(=O)c1ccc(-c2nnn(CC(=O)Nc3ccc4c(c3)OCCO4)n2)cc1
3% | Cc1oc(C)c2c(=O)cc(-c3ccc4c(c3)OCO4)cc(OC(=O)c3ccc(Cl)cc3)c12
0% | COc1ccc(/C=C2/C(=O)N(c3ccccc3)N=C2C)cc1OC
-3% | CN(c1ccccc1)c1nc(N)c([N+](=O)[O-])c(N2CCOCC2)n1
-7% | O=C1CSC(c2ccc([N+](=O)[O-])cc2)N1c1ccc(O)cc1 (stereo not drawn)
6% | O=C(Nc1nnc(-c2ccccc2Cl)o1)c1ccco1
1% | COc1cc2c(cc1OC)[C@@H](NC(=O)CCc1ccccc1)[C@H](OCc1ccccc1)C2
-13% | Cc1cc(Br)c(S(=O)(=O)NCc2cccnc2)cc1C
-6% | CCC(C)(C)NC(=O)C(c1ccncc1)N(C(=O)Cn1nnc2ccccc21)c1cc2c(cc1C(C)=O)OCO2 (stereo not drawn)
5% | COCCCNC(=O)NC(=O)c1ccccc1
5% | Cc1ccc(C(=O)N2CCN(S(=O)(=O)c3ccc(C)cc3)CC2)cc1
5% | O=C(NCc1cccs1)c1cc(-c2cccc(Cl)c2)on1
-15% | CCCCCCOc1ccc(OC(=O)c2ccncc2)cc1
4% | CCOC(=O)C1=C(C)Nc2ncnn2C1c1cc(OC)ccc1OC (stereo not drawn)
9% | CC1=NN(C(N)=S)C(C)(C)C1
-6% | C=CCn1c(O)c(N=Nc2ccccc2)c2ccccc21
? | CCCCS(=O)(=O)c1oc(-c2ccc(F)cc2)nc1S(=O)(=O)c1ccc(C)cc1

(listing goes on)
VDR inhibitor | structure
11% | Cc1ccccc1C(=O)n1nc(-c2cccnc2)nc1NCc1ccc(F)cc1
-14% | O=C(COC(=O)c1ccc(S(=O)(=O)C(F)F)cc1)NC(=O)NC1CCCCC1
-21% | C=CCN1C(=O)c2ccc(C(=O)N3CCN(S(=O)(=O)c4cccc(Cl)c4)CC3)cc2C1=O
-20% | COc1ccccc1CNc1ncnc2ccc(-c3ccccc3C#N)cc12
? | CC(C)(C)C(=O)Nc1ccc(/C=C/C(=O)c2ccco2)cc1
12% | CC(=O)n1cc(/C=N/NC(=O)c2ccccc2Cl)c2ccccc21
0% | N#C/C(=C\c1c[nH]c2ccccc12)C(=O)Nc1ncc(Cc2ccc(Cl)cc2Cl)s1
-1% | Cc1ccsc1CN(C(=O)COc1ccccc1Cl)C1CCS(=O)(=O)C1 (stereo not drawn)
11% | COc1cccc(-c2cc(C(=O)Nc3ccccc3)c3ccccc3n2)c1
-13% | CCCCn1c(SCC(=O)NCc2ccco2)nnc1-c1ccoc1C
1% | COC(=O)CSc1nnc(SCc2ccccc2)s1
7% | COc1ccc(CCNC(=O)c2cccnc2)cc1OC
10% | COn1c(-c2ccccc2)nc2c1CCc1c-2no[n+]1[O-]
25% | O=C(NCC1CCCO1)C1CCN(C2CCN(Cc3ccco3)CC2)CC1 (stereo not drawn)
-6% | CC1(C)C[C@H](O)[C@@]23C[C@@H](OC2=O)[C@]2(C)C(=CCC4[C@@]5(C)CC[C@H](O)C(C)(C)C5CC[C@]42C)[C@@H]3C1 (stereo partly drawn)
4% | O=C(c1ccc(NS(=O)(=O)c2cccs2)cc1)N1CCN(c2ccccc2Cl)CC1
-2% | O=C(Nc1ccc(Cl)cc1)c1csc(Cc2ccccc2)n1
8% | CCCc1cc(=O)oc2c(CN3CCN(C)CC3)c(O)ccc12
-14% | O=C(CN1C(=O)NC2(CCCC2)C1=O)OCc1ccc(Cl)cc1Cl
-3% | Cc1ccc(/C=C/C(=O)N2CCN(S(=O)(=O)/C=C/c3ccccc3)CC2)o1
7% | Cc1cccc(NC(=O)CCCNC(=O)c2ccc(Cl)cc2)n1
-6% | O=C(CSCc1ccc(Cl)cc1Cl)Nc1nccs1
-5% | O=C(Nc1ccc(OC(F)(F)F)cc1)c1cccc(-n2cnnn2)c1
-24% | Cc1nn(-c2ccccc2Cl)c(Cl)c1/C=C(\C#N)C(N)=O
-20% | O=C(C[C@H]1C[C@H](C(=O)N2CCCCC2)[C@@]2(CCc3ccccc3)c3[nH]c4cc(-c5ccco5)ccc4c3CCN2C1=O)NCc1cccc(C(F)(F)F)c1
8% | CCOCCCn1c(=S)[nH]c2cc(C(=O)NCC(OC)OC)ccc2c1=O
-29% | Cc1cc(C(=O)N/N=C2/CC(C)CC(C)(C)C2)c(C)o1 (stereo not drawn)
10% | Cc1ccc(S(=O)(=O)NCCC(=O)Nc2ncccc2O)cc1C
-16% | CCOc1ccc(NC(=S)Nc2cccc3cnccc23)cc1
6% | CCO[C@H]1OC(C(=O)NCc2ccccc2)=C[C@@H](C)[C@@H]1CCCO
-17% | Cc1ccccc1Nc1nnc(SCC(=O)Nc2ccccc2[N+](=O)[O-])s1
-18% | COc1ccc(CC2(CO)CCN(C(C)Cc3ccc(Cl)cc3)CC2)cc1 (stereo not drawn)
12% | O=C(NCC1CCCO1)c1cc(C(=O)C2CCCCC2)c[nH]1 (stereo not drawn)
-14% | COC(CNc1ncnc2sc(-c3ccccc3)cc12)OC
-13% | COC(=O)c1sccc1NC(=O)c1cccc(Cl)c1
-9% | O=C(C[n+]1ccc2ccccc2c1)c1cccc2ccccc12

Part of the list above, set out differently.
Structure | VDR inhibitor
CCOCCCn1c(=S)[nH]c2cc(C(=O)NCC(OC)OC)ccc2c1=O | 8%
Cc1cc(C(=O)N/N=C2/CC(C)CC(C)(C)C2)c(C)o1 (stereo not drawn) | -29%

More structures:
VDR inhibitor | structure
0% | C[C@H]1CN(S(=O)C(C)(C)C)[C@@H](CCO)/C1=C\c1ccccc1 (stereo partly drawn)
12% | CCc1ccc(OCC(=O)Nc2ccncc2)cc1
-2% | CC1CCC(N2CCN(c3ncccn3)CC2)C1 (stereo not drawn)
-14% | CCCCn1c(S(=O)(=O)O)nc2ccccc21
20% | Cc1nc(N/N=C/c2ccccn2)sc1C
-13% | O=C(O)c1ccc(-c2nc(-c3ccccc3)c(-c3ccccc3)[nH]2)cc1
-9% | Cc1ccccc1NC(=O)C1CCCN(c2ncnc3onc(-c4ccc(F)cc4)c23)C1 (stereo not drawn)
-7% | C[C@H](CO)N1C[C@H](C)[C@@H](CN(C)C(=O)Nc2ccc3c(c2)OCO3)Oc2ccc(NC(=O)Cn3cnnn3)cc2C1=O
18% | Cc1cccc(/C=C2\Sc3ccc(C(=O)NCC4CCCO4)cc3N(C)C2=O)c1 (stereo not drawn)
-19% | COc1cc(/C=C(\C#N)C(=O)Nc2ccccn2)ccc1O
14% | Fc1cccc(NCc2cn3ccccc3n2)c1
14% | COc1ccc(NC(=O)CSc2nnc(C3CCCCC3)n2-c2ccccc2)cc1
-8% | C/C(=N\NC(=O)c1nnn(-c2nonc2N)c1COc1ccc(F)cc1)c1ccc(Cl)cc1
4% | Cc1nc(N2CCN(C(=O)c3ccc(Cl)cc3)CC2)c(C#N)c2c1COC(C)(C)C2
12% | Cc1ccc(C(=O)c2nc3c(n2O)CCCC3)cc1
-7% | CC(C(=O)Nc1ccc(S(=O)(=O)Nc2ncccn2)cc1)N1C(=O)c2ccccc2S1(=O)=O (stereo not drawn)
-9% | O=c1[nH]c(CN2CCN(c3ccccc3)CC2)nc2scc(-c3ccccc3)c12
-24% | CCOC(=O)c1nc(C)c(C(C)=O)s1
-6% | O=S(=O)(c1ccccc1)c1nc(-c2ccco2)oc1N1CCOCC1
3% | O=C(CSc1cn[nH]n1)Nc1nc2ccccc2s1
7% | CCCCc1ccc(NC(=S)NCCCN2CCOCC2)cc1

Screens from PubChem BioAssay.
